Screening data as filed in PubChem.
Anaer choline gr = growth inhibitors of anaerobic choline-fed gram-negatives, minimal medium, absorbance; Gram-negative bacterium anaerobic choline minimal medium; hits give low values; many inactives read as strong as hits in the columns shown; calls only; 55,000 tested, 0.2% active; AID 1963822, 2024;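 active = growth z-score on choline under -2 at 7 or 20 h with little or no fall on glycerol, limits in tiers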;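 also: stock transfer was 300 nL into about 50 µL; the organism is E. coli; final concentration not given here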
Anaer choline gr early = further read-out of Anaer choline gr, marked with its call; z-score; measured here: choline growth z-score, timepoint 1;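 score of optical density at 7 h as mean of two plates; lower means less growth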
Numbers without * were called inactive; & = joins results of further samples. Not all compounds are listed. The share of hits here may be higher or lower than overall.

COc1cc(C)c(Cl)cc1S(=O)(=O)N1CCN(c2cc(N(C)C)nc(C)n2)CC1 was read as Anaer choline gr inactive and Anaer choline gr early 0.27.
CCOC(=O)N1CCC(=C2c3ccc(Cl)cc3CCc3cccnc32)CC1 was read as Anaer choline gr inactive and Anaer choline gr early 0.14&-0.87&0.43&-1.1&0.49.
CN(Cc1cc2ccccc2[nH]c1=O)C(=O)c1cccc(Cl)c1 was read as Anaer choline gr inactive and Anaer choline gr early -0.42.
O=S(=O)(c1cc(-c2nnc(C3CC3)o2)co1)N1CCN(C2CCCCC2)CC1 was read as Anaer choline gr inactive and Anaer choline gr early -1.4.
CN1CCN(C(=O)c2cc3cccnc3n(Cc3ccc(F)cc3)c2=O)CC1 was read as Anaer choline gr inactive and Anaer choline gr early -1.5.
`Cc1nc2ncnn2c(Nc2cccc3c2CCCC3)c1C` gave Anaer choline gr inactive and Anaer choline gr early -1.6.
For CCOc1ccc(CNC(=O)c2sc(-n3cccc3)nc2C(F)(F)F)cc1OC the results were Anaer choline gr inactive and Anaer choline gr early -0.31.
Screening O=C(CC1SCCNC1=O)Nc1ccc(Br)cc1 (stereo not given) returned Anaer choline gr inactive and Anaer choline gr early -0.23.
Screening COc1ccc(OC)c2c1cc1n2CC(C)(C(=O)NC2CCCC2)N(CCN2CCCC2)C1=O (stereo not given) returned Anaer choline gr inactive and Anaer choline gr early 0.45.
CCOc1ccc(NS(=O)(=O)c2cc(CN3C(=O)C4CCCCC4C3=O)ccc2C)cc1 (stereo not given) was read as Anaer choline gr inactive and Anaer choline gr early -1.1.
CCC1CN(C(=O)c2ccc(-c3noc(C)n3)cc2)c2cc(Cl)ccc2O1 (stereo not given) was read as Anaer choline gr inactive and Anaer choline gr early 0.37.
CCN1CCN(CC2CCN(S(=O)(=O)c3cc(F)cc(F)c3)CC2)CC1 was read as Anaer choline gr inactive and Anaer choline gr early -1.5.
For O=C(Nc1cccc(Cl)c1)C1CCN(c2ccccc2)C1=O (stereo not given) the results were Anaer choline gr inactive and Anaer choline gr early -0.01.
Cc1ccc2ccc3cc(C(=O)NC4CCCC4)nc3c2[nH]1 was read as Anaer choline gr inactive and Anaer choline gr early -0.28.
`COc1ccc(NC(=O)c2nnc(C3CCN(C(=O)Nc4ccccc4)CC3)s2)cc1` gave Anaer choline gr inactive and Anaer choline gr early 0.22.

Brought forward from above: 2 compounds; new compounds follow.
Cc1ccc2ccc3cc(C(=O)NC4CCCC4)nc3c2[nH]1 was read as Anaer choline gr inactive and Anaer choline gr early -0.28.
`COc1ccc(NC(=O)c2nnc(C3CCN(C(=O)Nc4ccccc4)CC3)s2)cc1` gave Anaer choline gr inactive and Anaer choline gr early 0.22.
For O=C(c1nc(-c2ccccc2)n(-c2ccc(F)cc2)n1)N1CCc2ccccc2C1 the results were Anaer choline gr inactive and Anaer choline gr early -0.36.
`Cc1ccc2[nH]c(C(=O)Nc3nccs3)cc2c1` gave Anaer choline gr inactive and Anaer choline gr early 0.72.
`Cc1nn(C)c(C)c1S(=O)(=O)N1CCN(C(=O)c2cc3ccccc3[nH]2)CC1` gave Anaer choline gr inactive and Anaer choline gr early 0.27.
Screening COc1cc2c(cc1OC)C(C(=O)N1CCC(Cc3ccccc3)CC1)C1c3ccccc3CCN1C2=O (stereo not given) returned Anaer choline gr inactive and Anaer choline gr early 0.01.
`COc1ccc(Cl)cc1NC(=O)NCC1CCN(Cc2cc(C)ccc2C)CC1` gave Anaer choline gr inactive and Anaer choline gr early 0.58.
O=S(=O)(c1ccc(F)cc1)c1nc(-c2ccc(F)cc2)oc1N1CCOCC1 was read as Anaer choline gr inactive and Anaer choline gr early 0.39.
For O=C(Nc1ccc(Cl)cc1)Nc1nc(CC(=O)N2CCc3ccccc32)cs1 the results were Anaer choline gr inactive and Anaer choline gr early 0.69.
CCCN(CCC)C(=O)CN(C)S(=O)(=O)c1ccc2c(c1)c(=O)n(C)c(=O)n2C was read as Anaer choline gr inactive and Anaer choline gr early 0.03.
Cc1ccccc1NC(=O)C1CCCN(c2ccc3cc(S(=O)(=O)N4CCCCC4)ccc3n2)C1 (stereo not given) was read as Anaer choline gr inactive and Anaer choline gr early -0.34.
`Cc1ccc(CNC(=O)C2CCN(c3ccncc3)CC2)cc1` gave Anaer choline gr inactive and Anaer choline gr early -1.7.
CCOC(=O)c1ccccc1NC(=O)Cn1cc(C(=O)c2ccc(Br)cc2)c(=O)c2ccc(C)nc21 was read as Anaer choline gr inactive and Anaer choline gr early 0.62.
Screening CC(C)CC(=O)Nc1ccc(Sc2nc3ccccc3n3nnnc23)cc1 returned Anaer choline gr inactive and Anaer choline gr early -0.54.
`Cc1cc(C)c2c(n1)SCCN2C(=O)NCCC(=O)NC(C)C` gave Anaer choline gr inactive and Anaer choline gr early 0.9.
Screening CCc1cc2c(cc3n2CC(C)(C(=O)NC2CCC(C)CC2)N(CCN2CCCC2)C3=O)s1 (stereo not given) returned Anaer choline gr inactive and Anaer choline gr early -1.7.
`Cc1ccc2ccc3cc(C(=O)NCCC4=CCCCC4)nc3c2[nH]1` gave Anaer choline gr inactive and Anaer choline gr early 1.1.
CC1CCN(c2nccc(C(=O)N3CCN(C4CCCCC4)CC3)n2)CC1 was read as Anaer choline gr inactive and Anaer choline gr early 0.21.
For O=C1C(c2c(O)[nH]c3ccccc23)=Nc2ccccc21 the results were Anaer choline gr inactive and Anaer choline gr early 0.93&1.2.
`O=C(OCCc1ccccn1)c1cnn2c(C(F)(F)F)cc(-c3ccccc3)nc12` gave Anaer choline gr inactive and Anaer choline gr early -1.
CC(N)(Cc1ccc(O)c(O)c1)C(=O)O (stereo not given) was read as Anaer choline gr inactive and Anaer choline gr early 1.1.
For CCC(C(=O)Nc1cccc(OC)c1)n1nc(-c2ccc(C)cc2)ccc1=O (stereo not given) the results were Anaer choline gr inactive and Anaer choline gr early -0.54.
For Cc1noc(C(=O)N2C(C)CCCC2C)c1Cl (stereo not given) the results were Anaer choline gr inactive and Anaer choline gr early 0.31.
CC1(CNS(=O)(=O)c2ccc(F)cc2F)CCOCC1 was read as Anaer choline gr inactive and Anaer choline gr early -0.11.
`O=C(O)c1cn(C2CC2)c2cc(N3CCNCC3)c(F)cc2c1=O` gave Anaer choline gr inactive and Anaer choline gr early -2.4&0.42.
Screening CCOc1cc(-c2ccccc2)nc2ccc(NS(=O)(=O)c3ccc(OC)c(OC)c3)cc12 returned Anaer choline gr inactive and Anaer choline gr early -0.5.
`Cc1ccc(S(=O)(=O)C2CS(=O)(=O)CC2S(=O)(=O)c2ccc(C)cc2)cc1` (stereo not given) gave Anaer choline gr inactive and Anaer choline gr early 0.26.
For COC(=O)C1=C(C)NC(C)=C([N+](=O)[O-])C1c1ccccc1C(F)(F)F (stereo not given) the results were Anaer choline gr inactive and Anaer choline gr early 0.97&-0.49&0.77.
`Cc1ccc(-c2nc3n(c2CNC(=O)c2ccc(Br)cc2)CCS3)cc1` gave Anaer choline gr inactive and Anaer choline gr early 0.46.
For CO[C@H]1C[C@H](O[C@H]2[C@H](C)[C@@H](O[C@@H]3O[C@H](C)C[C@H](N(C)C)[C@H]3OC(C)=O)[C@@H](C)C[C@@]3(CO3)C(=O)[C@H](C)[C@@H](OC(C)=O)[C@@H](C)[C@@H](C)OC(=O)[C@@H]2C)O[C@@H](C)[C@@H]1OC(C)=O the results were Anaer choline gr inactive and Anaer choline gr early -0.36&-0.16.
For O=C(O)c1ccc(N2CCN(c3cccc(Cl)c3)CC2)c(NS(=O)(=O)c2cccc(F)c2)c1 the results were Anaer choline gr inactive and Anaer choline gr early -0.03.
`COc1cccc2c1Oc1ncccc1N(C(=O)Nc1ccc3c(c1)OCCO3)C2` gave Anaer choline gr inactive and Anaer choline gr early 0.06.

Structural class: the compounds so far with a COOH group (3)
CC(N)(Cc1ccc(O)c(O)c1)C(=O)O (stereo not given) was read as Anaer choline gr inactive and Anaer choline gr early 1.1.
`O=C(O)c1cn(C2CC2)c2cc(N3CCNCC3)c(F)cc2c1=O` gave Anaer choline gr inactive and Anaer choline gr early -2.4&0.42.
For O=C(O)c1ccc(N2CCN(c3cccc(Cl)c3)CC2)c(NS(=O)(=O)c2cccc(F)c2)c1 the results were Anaer choline gr inactive and Anaer choline gr early -0.03.

Reprinted from above, 2 compounds:
CC1CCN(c2nccc(C(=O)N3CCN(C4CCCCC4)CC3)n2)CC1 was read as Anaer choline gr inactive and Anaer choline gr early 0.21.
For O=C1C(c2c(O)[nH]c3ccccc23)=Nc2ccccc21 the results were Anaer choline gr inactive and Anaer choline gr early 0.93&1.2.

Additional compounds follow.
For COCCNC(=O)c1cnc2sc3c(n2c1=O)CCC3 the results were Anaer choline gr inactive and Anaer choline gr early -0.35.
Screening O=C1c2ccccc2S(=O)(=O)N1Cc1ccccc1 returned Anaer choline gr inactive and Anaer choline gr early -0.48.
For Fc1ccc(CSc2nc3ccccc3n3nnnc23)cc1 the results were Anaer choline gr inactive and Anaer choline gr early 1.1.
O=C(NCCN1CCCCC1)c1ccc(I)cc1 was read as Anaer choline gr inactive and Anaer choline gr early 0.37.
Screening COc1ccc(-c2c(C)[nH]n3c(=O)c(C)c(C)nc23)cc1 returned Anaer choline gr inactive and Anaer choline gr early -0.52.
For COc1ccc(/C=C\c2onc(C)c2S(=O)(=O)N2CCC(C(=O)N(C)Cc3ccccc3)CC2)cc1 the results were Anaer choline gr inactive and Anaer choline gr early 1.1.
Screening CCOC(=O)c1cc2ccsc2n1CC(=O)NC(C)(C)C returned Anaer choline gr inactive and Anaer choline gr early -0.02.
O=C(COc1ccc(Cl)cc1)NC(c1ccc(F)cc1)c1nnc(-c2ccccc2)o1 (stereo not given) was read as Anaer choline gr inactive and Anaer choline gr early 0.11.
Screening Cc1ccc(S(=O)(=O)Nc2cc3c(cc2N2CCCCC2)n(C)c(=O)c(=O)n3C)cc1C returned Anaer choline gr inactive and Anaer choline gr early 0.1.
Screening COc1ccc(OC)c(CCNC(=O)Cn2cccc2C(=O)c2ccccc2)c1 returned Anaer choline gr inactive and Anaer choline gr early -0.44.
For CCc1nc2ccccc2n1CC(O)COc1ccc(C)cc1 (stereo not given) the results were Anaer choline gr inactive and Anaer choline gr early -0.55.
For COc1cccc(-c2nn3c(COc4ccc(Br)cc4)nnc3s2)c1OC the results were Anaer choline gr inactive and Anaer choline gr early 1.2.
CCOC(=O)c1ccccc1NC(=O)CSc1nnc2[nH]c(=O)cc(-c3ccccc3)n12 was read as Anaer choline gr inactive and Anaer choline gr early 2.1.
For COc1ccc(N2C(=O)CCS2(=O)=O)cc1S(=O)(=O)Nc1ccc(F)c(Cl)c1 the results were Anaer choline gr inactive and Anaer choline gr early 0.18.
COc1ccc(CCC(=O)NCCc2nc(-c3ccc(OC)cc3)n[nH]2)cc1 was read as Anaer choline gr inactive and Anaer choline gr early 0.41.
For CCc1ccc(-c2ccc(=O)[nH]n2)cc1S(=O)(=O)N1CCC(C)CC1 the results were Anaer choline gr inactive and Anaer choline gr early -0.74.
`Cc1cccc(NC(=O)Nc2ccc(-c3nnc(-c4ccccc4)o3)cc2)c1C` gave Anaer choline gr inactive and Anaer choline gr early -0.29.
Cc1[nH]c(C(=O)N2CCCC(C(=O)NCCN3CCCCC3C)C2)c(C)c1C(=O)OC(C)C (stereo not given) was read as Anaer choline gr inactive and Anaer choline gr early -0.97.
`Cc1cc(Cl)ccc1NS(=O)(=O)c1cc(-c2cc(C(F)(F)F)on2)sc1C` gave Anaer choline gr inactive and Anaer choline gr early 1.1.
Screening CC(C)(C)CC(=O)N1CCNC(=O)C1(C)C returned Anaer choline gr inactive and Anaer choline gr early 0.16.
For CCCOc1ccc(Br)cc1-c1cc(-c2ccc(Cl)cc2)[nH]c1-c1ccncc1 the results were Anaer choline gr inactive and Anaer choline gr early 0.1.
For CCc1ccc(-n2nc(C)c3c(C)cc(OCC(=O)NC(C)c4cc(OC)ccc4OC)nc32)cc1 (stereo not given) the results were Anaer choline gr inactive and Anaer choline gr early -0.26.
O=C1NC(Cc2c[nH]c3ccccc23)C(=O)N1c1cccc(Cl)c1 (stereo not given) was read as Anaer choline gr inactive and Anaer choline gr early -0.06.
Screening COc1ccc2[nH]cc(CCNC(=O)c3ccc(Cn4c(=O)c(C)nc5cc(C)c(C)cc54)cc3)c2c1 returned Anaer choline gr inactive and Anaer choline gr early -0.29.
Screening COc1ccc(NC(=O)C2CC(=O)Nc3nc4ccccc4n32)c(OC)c1 (stereo not given) returned Anaer choline gr inactive and Anaer choline gr early -1.7.
For CCCCOc1ccc(NC(=O)c2oc3cc(C)c(Cl)cc3c2C)c2cccnc12 the results were Anaer choline gr inactive and Anaer choline gr early 0.91.
For Cc1cc(F)ccc1NC(=O)CN1c2ccccc2S(=O)(=O)c2ccccc21 the results were Anaer choline gr inactive and Anaer choline gr early -1.2.
Screening CC(C)c1ccc(S(=O)(=O)NCCn2c(-c3ccncc3)nc3cccnc32)cc1 returned Anaer choline gr inactive and Anaer choline gr early -0.14.
c1ccc(-c2noc(N3CCCCC3)n2)cc1 was read as Anaer choline gr inactive and Anaer choline gr early -0.47.
`Cn1c(=O)c2[nH]c(-c3ccc(F)c(Br)c3)nc2n(C)c1=O` gave Anaer choline gr inactive and Anaer choline gr early -1.5.
For CCC(=O)Nc1ccc(-c2cc(C(=O)NC3CCCC3)c3ccccc3n2)cc1 the results were Anaer choline gr inactive and Anaer choline gr early 0.65.
O=S(=O)(c1cc(-c2nnc(C3CC3)o2)co1)N1CCC(N2CCCCC2)CC1 was read as Anaer choline gr inactive and Anaer choline gr early 1.2.
For Cn1c(-n2cccc2)c(-c2c(-c3ccc(F)cc3)[nH]c3c2c(=O)[nH]c(=O)n3C)c(=O)[nH]c1=O the results were Anaer choline gr inactive and Anaer choline gr early -1.8.
O=C(COc1ccc(-c2nc(-c3ccccc3)no2)cc1)NCC1CCCO1 (stereo not given) was read as Anaer choline gr inactive and Anaer choline gr early 0.65.
